VACV Venus inh: inhibitors of vaccinia virus (Venus reporter). Vaccinia virus Venus reporter expression, fluorescence. Potency, µM (doses to about 36.5 µM), without a hit: at the top dose activity change, negative = inhibition, hits mostly inhibitors. actives 0.46% (n = 330,000); active means well fitted inhibition curve with a large enough effect; inconclusive means small, poorly fitted or top-dose-only effect; inactive means no such curve, though single readings can be large or run the other way; tested in A549 cells; also: nearly all actives have a fitted effect of over 30% in size; inactives centre near -10
Vaccinia mCherry: inhibitors of vaccinia virus infection (mCherry reporter signal) | Vaccinia virus mCherry reporter infection, fluorescence; about a quarter of the inactives have no number | Potency, µM (series often up to 36.5 µM), for inactives: at the top dose activity change, negative = inhibition, hits mostly inhibitors | actives 0.63% (n = 310,000); active = well fitted inhibition curve with a large enough effect; inconclusive = small, poorly fitted or top-dose-only effect; inactive = no such curve, though single readings can be large or run the other way; tested in A549 cells; also: nearly all actives have a fitted effect of over 35% in size; inactives centre near -10
An asterisk follows results filed as active; i = inactive; ? = inconclusive; . = not tested or not shown; & = joins results of further samples; [ ] = remark or other dose. % is scaled to controls: 0 for no effect and ±100 for the full control effect; potency is read from the fitted curve at half-maximal effect.

SMILES	VACV Venus inh	Vaccinia mCherry
Cc1c(Cl)cccc1-n1ncc(C(=O)NC2CCCCC2)c1C1CCN(C(=O)OC(C)(C)C)CC1	-8%	4%
O=C(CSc1ccc(Cl)cc1)Nc1ccc(N2CCN(c3ccccc3)CC2)c(F)c1	-2%	.
Cc1ccc(C(C)NC(=O)c2cc3cc(Br)ccc3oc2=N)cc1 (stereo not given)	-12%	-12%
CC1CN(C(=O)c2ccccc2Sc2ccccc2C#N)CC(C)O1 (stereo not given)	-8%	-12%
COc1ccc(S(=O)(=O)N2CCOC2CNC(=O)C(=O)NCCc2ccccc2)cc1OC (stereo not given)	-12%	-4%
NNC(=O)CC1=NNC(=O)C1	-8%	-14%
CCc1ccc(NC(=O)CC2C(=O)N(c3cccc(OC)c3)C(=O)N2Cc2ccco2)cc1 (stereo not given)	-7%	-1%
CCOC1=C2CN(S(=O)(=O)c3ccc(C)cc3)[C@H](c3ccccc3)C[C@H]2[C@H]2C(=O)N(c3ccccc3)C(=O)[C@H]2C1	-15%	25%
O=C(NC(=S)NC1CCSC1=O)c1ccccc1F (stereo not given)	-8%	-13%
O=C(CCNC(=O)c1ccco1)Nc1ccc(Cl)cc1F	-9%	i
CC(=O)N1CCc2cc(S(=O)(=O)NC(Cc3ccccc3)C(=O)NCc3ccc(C)cc3)ccc21 (stereo not given)	-7%	-4%
CCOc1ccc(NC(=O)C(CC)n2nc(C)c3c(C)n(-c4ccccc4)nc3c2=O)cc1 (stereo not given)	-17%&-10%	?
Cc1ccc(N(Cc2ccccc2)C(=O)c2cccc(S(=O)(=O)N3CCN(C)CC3)c2)cc1	-24%	-11%
COc1ccc2c(c1)CCC1C2CC[C@@]2(C)C(O)CCC12 (stereo not given in full)	10%	-2%
Cn1nc(C(=O)OCC(=O)Nc2ccc(SC(F)F)cc2)c2ccccc2c1=O	-3%	i
Cn1ncc2c(NNC(=O)c3ccc(Cl)c(Cl)c3)ncnc21	-13%	-4%
CCC(=O)N1CCC1(C)C(=O)Nc1cc(-c2ccccc2)nn1C (stereo not given)	-4%	32%[activator]
COC1=CC2C3Cc4ccc(OC)c(O)c4[C@]2(CCN3C)CC1=O (stereo not given in full)	-4%	-4%
COc1cc(S(=O)(=O)NCc2ccccc2)ccc1-n1cnnn1	-1%	-3%
COc1ccc(CC(=O)Nc2cccc(-c3cn4ccccc4n3)c2)cc1	-24%	?
Cc1ccccc1NC(=O)c1ccccc1NC(=O)c1ccccc1Cl	-5%	-5%
CCNCCNC(=O)c1c(O)c2c([nH]c1=O)CCCC2	-7%	-8%
Cc1ccc2nc(SCc3ccccc3)c(C=O)c(=O)n2c1	-3%	-11%
O=C(NCCN1C(=O)S/C(=C\c2ccc(Cl)c(Cl)c2)C1=O)C1COc2ccccc2O1 (stereo not given)	-6%	-16%
CCOC(=O)c1c(NC(=O)CSc2nnc3ccccn23)sc2c1CCC2	?	?

Additional compounds follow.
SMILES	VACV Venus inh	Vaccinia mCherry
C[C@]12C[C@H](O)[C@@H](O)CC1=CCC1C2CC[C@@]2(C)C1CC[C@@H]2O (stereo not given in full)	-4%	?
CCC12CN3CC(C)(CN(C1)C3c1c[nH]c3ccccc13)C2=O (stereo not given)	-13%	-6%
COc1ccc(CNC(=O)CN(C(=O)Cn2nnc(-c3ccccc3F)n2)c2ccc(C)cc2)cc1	-8%	i
CCCCCn1c(CN2CCN(c3ccc(OC)cc3)CC2)nc2c1c(=O)[nH]c(=O)n2C	0%	-16%
Cc1ccc(OCC(O)CN2C(=O)NC(C)(C)C2=O)cc1C (stereo not given)	3%	i
CN(C)CCCn1c(=O)n(Cc2ccccc2)c(=O)c2c3c(sc21)CCCCC3	-28%	?
O=C(Nc1ccc(F)cc1)C1CCCN(c2ncnc3c2nc2n3CCCCC2)C1 (stereo not given)	-23%	-27%
Cc1ccc(-c2onc(C)c2C)cc1S(=O)(=O)NCc1ccc(N(C)C)cc1	-17%	-21%
CCCN1CNc2c(c(=O)[nH]c(=S)n2CCC(C)(C)C)C1	-22%	-26%
CNC(=O)NC(=O)CSc1ccc(S(=O)(=O)N(C)C2CCCCC2)cn1	-15%	i
COc1ccc(N2CCN(c3ncnc4c3cnn4C)CC2)cc1	-12%	-13%
Cc1cc(C(=O)N2CCN(Cc3ccc4c(c3)OCO4)CC2)on1	-2%	-9%
CCCCn1c(N)c(N(CCOC)C(=O)CC(NC(=O)c2ccccc2)c2ccccc2)c(=O)[nH]c1=O (stereo not given)	-5%	-16%
O=C(COC(=O)CNC(=O)c1ccccc1)Nc1ccc(Cl)cc1C(F)(F)F	-7%	-13%
O=C1NC[C@H](CCCCN2C[C@H](Cc3ccccc3)N(CC3CCCCC3)C(=O)C2=O)N(CCC2CCCCC2)C1=O	?	?
O=C(COC(=O)c1ccco1)NC(c1ccccc1)c1ccccc1	-19%	-2%
CCNC(=O)COc1cc(C)c(Cl)c(C)c1	-2%	-5%
O=C(NCCC1=CCCCC1)c1c(O)nc2sccn2c1=O	-15%	-15%
COC(=O)c1cc(OC)c(OC)cc1NCC(=O)Nc1ccc(C)cc1	-8%	-11%
CN(C)CCCn1c2c(c(SCC(=O)Nc3ccc4c(c3)OCCO4)nc1=O)CCCC2	-8%	i
CC(Oc1cccc(Cl)c1)C(=O)Nc1ccc(S(=O)(=O)Nc2ncccn2)cc1 (stereo not given)	-17%	i
CCc1n[nH]c(=O)c2cc3cc(OC)ccc3n12	-7%	-10%
CCSc1nc2c(c(=O)n1Cc1ccccc1)SC(C)C2 (stereo not given)	-22%	-8%
CC(OC(=O)Cn1cnc2c1c(=O)n(C)c(=O)n2C)C(=O)Nc1ccc(Cl)cc1 (stereo not given)	-5%	-10%
COC(=O)c1sc(NC(=O)c2cnccn2)c(C(=O)OC)c1C	-12%	-16%

Shown bar-delimited: part of the list above.
Structure | VACV Venus inh | Vaccinia mCherry
CC(Oc1cccc(Cl)c1)C(=O)Nc1ccc(S(=O)(=O)Nc2ncccn2)cc1 (stereo not given) | -17% | i
CCc1n[nH]c(=O)c2cc3cc(OC)ccc3n12 | -7% | -10%

Looked up above:
For VACV Venus inh, COC(=O)c1cc(OC)c(OC)cc1NCC(=O)Nc1ccc(C)cc1 has -8%
For VACV Venus inh, O=C(COC(=O)c1ccco1)NC(c1ccccc1)c1ccccc1 has -19%

Carrying on:
SMILES	VACV Venus inh	Vaccinia mCherry
CCN1CCCC1CNC(=O)c1cnn(-c2nccc(-c3cccs3)n2)c1C(C)C (stereo not given)	-10%	-21%
Cc1cc(C)cc(NC(=O)C2CCN(S(=O)(=O)c3cccc(-c4noc(C)n4)c3)CC2)c1	-19%	-20%
CCN(CC)C(=O)Cn1cc(C(=O)C(=O)NCCCN2CCOCC2)c2ccccc21	-5%	-13%
CCN(CC)Cc1c(C(=O)N/N=C/c2cccnc2)nnn1-c1nonc1N	4%	-6%
CCn1cc([N+](=O)[O-])c(C(=O)Nc2ccn(C34CC5CC(CC(C5)C3)C4)n2)n1	-16%	-18%
Cc1ccccc1CNC(=O)CCc1cn(Cc2ccccc2C)c2ccccc12	-16%	-12%
CCCC(=O)N1c2ccccc2NC2=C(C(=O)CCC2)C1c1ccc(F)cc1 (stereo not given)	4%	5%
O=C(OCc1ccc([N+](=O)[O-])cc1)c1cc(S(=O)(=O)N2CCCCC2)ccc1N1CCOCC1	-14%	-16%
O=C(NCc1ccc(F)cc1)c1cc(C2CCCCN2C(=O)CCCc2ccccc2)on1 (stereo not given)	-10%	-27%
COc1ccc(-n2c(-c3ccc(C)cc3)n[nH]c2=S)cc1	-14%	-23%
Cc1ccc(C)c(OCC(=O)NNC(=O)CCN2CCN(c3ccccc3)CC2)c1	-19%	?
O=C(c1ccccc1)c1nn(-c2cccc(Cl)c2)ccc1=O	14%	i
C=CC[C@@H](CC(=O)N(CCO)Cc1ccccc1)C(=O)NC[C@H](OC(=O)[C@@H](CC=C)CC(=O)OC(C)(C)C)c1ccccc1	?	-10%
Cc1cc(N2CC(C)OC(C)C2)nc(C(C)C)n1 (stereo not given)	-18%	i
Cc1cccc(Oc2cc(NC(=O)c3ccccc3)cc([N+](=O)[O-])c2)c1	?	-27%
Fc1ccccc1NC(=S)NCc1ccccc1	-7%	-5%
O=C1CCN(CCc2ccccc2)CCN1[C@H](CSc1ccc(Br)cc1)c1ccccc1	-14%	-13%
CCCCN(CCCC)c1ccc(C=Nc2ccc(/C=C/c3ccnc4ccccc34)cc2)cc1C	-14%	-17%
CCC1(c2ccccc2)NC(=O)N(CC(=O)Nc2ccccc2C(=O)NC2CCCC2)C1=O (stereo not given)	-14%	-27%
CCCc1cc(C(=O)OCC(=O)NCCc2ccccc2)sc1C	-8%	i
CCCCc1nnc(NC(=O)CN2C(=O)C3CCCCC3C2=O)s1 (stereo not given)	-9%	-11%
CCc1ccc(Sc2cc(C(=O)O)c3ccccc3n2)cc1	-5%	-3%
O=C(c1ccc([N+](=O)[O-])cc1)N1CCN=C1SCc1ccccc1	-14%	-19%
CC(C)(C)c1ccc(OCC(=O)NNC(=O)CCc2ccccc2)cc1	-12%	-11%
CCCCCCNC(=O)c1ccc(Br)o1	-11%	-14%

Next part:
SMILES	VACV Venus inh	Vaccinia mCherry
Cc1nnc(SCC(=O)NC(=O)Nc2ccc3c(c2)OCCO3)s1	-13%	-15%
COc1ccc(C=O)cc1Oc1nc(Cl)ncc1F	-2%	2%
COc1ccccc1NC(=O)CSCC(N)=O	-2%	-15%
COc1ccc(NC(=O)c2c(NC(=O)CCC(=O)O)sc(-c3ccccc3)c2C)cc1	0%	i
O=S(=O)(NCc1ccco1)c1cccc(S(=O)(=O)N2CCCCC2)c1	-12%	i
Cc1nn(CCCC(=O)NCc2cccc(Cl)c2)c(=O)c2c1sc1ccccc12	-11%	-9%
CCN1C(=O)C2(Nc3ccccc3-c3nc4ccccc4n32)c2cc(OC)ccc21 (stereo not given)	-13%	-28%
Cn1ncc2c(Nc3ccccc3Cl)nc(Nc3ccccc3Cl)nc21	-5%	-23%
Cc1ccc([C@@H]2CC=C(C(=O)O)[C@H](c3ccccc3F)N2S(=O)(=O)c2ccc(C)cc2)cc1	-3%	-7%
COc1cccc(NC(=O)CN(C)C(=O)c2ccc(NC(=O)CC3SC(N4CCCCC4)=NC3=O)cc2)c1 (stereo not given)	-10%	i
CC(C)[C@H](NS(=O)(=O)c1ccccc1)C(=O)OCC(=O)N1N=C(c2ccc(Cl)cc2)CC1c1ccco1 (stereo not given in full)	-13%	-14%
CCN1CCN(CC(=O)Nc2ccc3c(c2)OCCO3)C(=O)C1=O	-10%	-8%
CCOC(=O)C1CCN(C(c2ccc(SC)cc2)c2c(O)cc(C)n(Cc3ccco3)c2=O)CC1 (stereo not given)	-9%	-16%
Cc1cccc(C)c1OCC(=O)N(Cc1ccccc1F)C1CCS(=O)(=O)C1 (stereo not given)	-4%	0%
Cc1cccc(CNCc2ccccc2)c1	-11%	-9%
CCCC(C(=O)O)N1C(=O)/C(=C/c2cccn2C)SC1=S (stereo not given)	9%	-5%
CCOC(=O)C1(C(F)(F)F)N=C(C(F)(F)F)Nc2ccccc21 (stereo not given)	-10%	-11%
COc1ccc(OC)c(NC(=O)C(=S)NC2CCCCC2)c1	-7%	-20%
COC(=O)c1cn(N(C)c2ncc(C(F)(F)F)cc2Cl)c(=O)c2ccccc12	-5%	.
COc1cc(NC(=S)NCCc2c[nH]c3ccccc23)c(OC)cc1Cl	?	?
CCCN(CCC)c1ncnc2nc[nH]c12	-27%	?
CC(C)OCCCNC(=O)C(=O)Nc1ccc2nc3n(c(=O)c2c1)CCCCC3	3%	2%
CC(C)CN(C(=O)COC(=O)c1cccn1C)c1c(N)n(Cc2ccccc2)c(=O)[nH]c1=O	0%	-7%
Cc1ccc(CN2CCC(n3nccc3NC(=O)CCCc3ccccc3)CC2)o1	-10%	i
C#CCOCCOCCOCCNc1nc(N2CCN(C(=O)[C@H](CCCCN)n3cc([C@@H](N)C(C)CC)nn3)CC2)nc(N2CCN(C(=O)[C@H](CCCCN)n3cc([C@@H](N)CC(C)C)nn3)CC2)n1 (stereo not given in full)	3%	-18%

Entries above containing a nitro group on carbon:
SMILES	VACV Venus inh	Vaccinia mCherry
CCn1cc([N+](=O)[O-])c(C(=O)Nc2ccn(C34CC5CC(CC(C5)C3)C4)n2)n1	-16%	-18%
O=C(OCc1ccc([N+](=O)[O-])cc1)c1cc(S(=O)(=O)N2CCCCC2)ccc1N1CCOCC1	-14%	-16%
Cc1cccc(Oc2cc(NC(=O)c3ccccc3)cc([N+](=O)[O-])c2)c1	?	-27%
O=C(c1ccc([N+](=O)[O-])cc1)N1CCN=C1SCc1ccccc1	-14%	-19%

5 compounds picked at random from the list so far, as already listed:
SMILES	VACV Venus inh	Vaccinia mCherry
CCN1CCN(CC(=O)Nc2ccc3c(c2)OCCO3)C(=O)C1=O	-10%	-8%
Cc1cccc(CNCc2ccccc2)c1	-11%	-9%
Cn1ncc2c(Nc3ccccc3Cl)nc(Nc3ccccc3Cl)nc21	-5%	-23%
COc1cccc(NC(=O)CN(C)C(=O)c2ccc(NC(=O)CC3SC(N4CCCCC4)=NC3=O)cc2)c1 (stereo not given)	-10%	i
CC(C)CN(C(=O)COC(=O)c1cccn1C)c1c(N)n(Cc2ccccc2)c(=O)[nH]c1=O	0%	-7%

Screening data (PubChem)
